Screening data (PubChem BioAssay)
Rango dissoc inh: qHTS Assay for Inhibitors of RanGTP induced Rango (Ran-regulated importin-beta cargo) - Importin beta complex dissociation; Snurportin-1 (Homo sapiens) + GTP-binding nuclear protein Ran (Homo sapiens) + Importin …; Biochemical FRET Rango-importin beta, RanGTP-induced dissociation; Potency, µM (doses to about 46.1 µM), without a hit: top-dose activity change, negative = inhibition; actives 0.071% (n = 340,000); active means falling FRET ratio curve, often poorly fitted, with flat reads before Ran was added; inconclusive means other falling curves, or compound fluorescence or quenching; inactive means flat or rising ratio curve;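 also: potency is read from the fitted curve at half-maximal effect; % of control where 0% means no effect; nearly all actives have a fitted effect of over 45% in size; -100% = wells without RanGTP and RCC1; the record marks most hits as doubtful in a second field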
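Two FRET readings bracket the reaction: one 5 min after compound meets Rango–importin beta, another 45 min after RanGTP-RCC1 (0.6 uM Ran, 0.2 uM RCC1, 2 mM GTP) is added. Only the second defines inhibition.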
miR-21 FLuc: qHTS Assay for Modulators of miRNAs and/orActivators of miR-21; HeLa miR-21 FLuc reporter, luciferase, 48 h; Potency, µM (doses to about 38.3 µM), without a hit: at the highest dose reporter change, positive = more light; 340,000 tested, under 10 active; active = well fitted rising curve with a large enough effect; inconclusive = small, poorly fitted or top-dose-only effect; inactive = no such curve, though single readings can be large or run the other way;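 also: % of control where 0% means no effect; miR-21 action dims this reporter so a rising signal means less miR-21 action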
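HeLa cells stably expressing CMV-driven firefly luciferase with a downstream miR-21 binding sequence, endogenously expressing miR-21, were treated with titrations (up to about 40uM final) for 48 hours at 37 degree Celsius. Luciferase luminescence was read after lysis.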
Rango complex inh: qHTS Assay for Inhibitors of Rango (Ran-regulated importin-beta cargo) - Importin beta complex formation; Importin subunit beta-1 (Homo sapiens), Q14974; Rango CFP/YFP FRET sensor + importin beta, 45 min; Potency, µM (top dose mostly 92.2 µM), for the others: top-dose inhibition of complex formation; actives 0.031% (n = 340,000); active = rising FRET ratio curve, often small or poorly fitted; inconclusive = mostly compound fluorescence or quenching in the first reads; inactive = flat curves in all reads;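 also: potency is read from the fitted curve at half-maximal effect; 0% = DMSO wells and 100% = buffer wells lacking importin beta; nearly all actives have a fitted effect of over 15% in size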
Target sequence (Q14974 whole entry, looked up): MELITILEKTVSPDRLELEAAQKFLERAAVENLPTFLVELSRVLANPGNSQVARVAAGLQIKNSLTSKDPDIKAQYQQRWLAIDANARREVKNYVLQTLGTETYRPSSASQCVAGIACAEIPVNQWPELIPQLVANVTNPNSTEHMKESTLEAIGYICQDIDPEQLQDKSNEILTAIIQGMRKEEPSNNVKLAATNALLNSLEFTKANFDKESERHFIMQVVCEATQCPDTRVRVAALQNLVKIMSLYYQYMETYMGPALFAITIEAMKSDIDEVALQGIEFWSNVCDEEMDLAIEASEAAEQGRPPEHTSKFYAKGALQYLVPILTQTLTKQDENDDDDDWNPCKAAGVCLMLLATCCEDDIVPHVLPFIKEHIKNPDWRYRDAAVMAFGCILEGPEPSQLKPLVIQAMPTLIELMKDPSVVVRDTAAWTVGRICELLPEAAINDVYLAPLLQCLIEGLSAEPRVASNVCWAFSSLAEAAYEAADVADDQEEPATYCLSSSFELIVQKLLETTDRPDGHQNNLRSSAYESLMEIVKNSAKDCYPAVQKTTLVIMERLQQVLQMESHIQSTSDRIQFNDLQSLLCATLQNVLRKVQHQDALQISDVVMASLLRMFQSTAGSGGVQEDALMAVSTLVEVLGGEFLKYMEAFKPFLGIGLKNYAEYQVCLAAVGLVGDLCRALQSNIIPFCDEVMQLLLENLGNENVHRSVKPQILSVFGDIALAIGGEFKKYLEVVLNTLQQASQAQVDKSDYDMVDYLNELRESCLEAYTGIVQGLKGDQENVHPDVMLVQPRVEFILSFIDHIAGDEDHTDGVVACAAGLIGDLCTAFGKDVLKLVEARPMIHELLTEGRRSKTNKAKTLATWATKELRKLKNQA
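FRET biosensor Rango (snurportin 1 IBB between N-terminal EYFP and C-terminal Cerulean), 50 nM in PBS/1 mM DTT/0.02% Tween-20/0.1% BSA, preincubated 5 min RT with compound; 0.125 microM importin beta added, 45 min RT, CFP/YFP FRET ratio read.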
GLA inh pH 4.5: qHTS Assay for Inhibitors of Human alpha-Galactosidase at pH 4.5; Alpha-galactosidase A (Homo sapiens), P06280; purified enzyme, 4-MU-alpha-Gal fluorescence, pH 4.5; activity change, negative = inhibition, % at 105 µM; 230,000 tested, under 10 active; inconclusive = small, poorly fitted or top-dose-only inhibition, or a rising curve; inactive = flat fitted curve, though single readings scatter; no compound was filed as active;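 also: 0% = full activity with enzyme and -100% = basal without enzyme; dose as in the result columns while the protocol names 77 µM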
Numbers without * were called inactive; ? = inconclusive; · = not tested or not shown; & = joins results of further samples. This is a subset (hit frequency here may not be typical).

SMILES | Rango dissoc inh | miR-21 FLuc | Rango complex inh | GLA inh pH 4.5
O=C(CSc1nnc(-c2ccccc2O)o1)NC1CCCCC1 | 2% | -10% | -1.4% | ·
COc1ccc(OCCCC(=O)Nc2cccc(C(C)=O)c2)cc1 | -2% | 0% | -4.2% | -3
COc1ccccc1Oc1ncnc2sccc12 | -4% | -11% | -0.1% | 10
CSCCC1NC(=O)N(CC(=O)Nc2cccc(S(=O)(=O)N3CCCCCC3)c2)C1=O (stereo not given) | -2% | · | 11% | ·
COc1ccc(CNC(=O)Nc2ccc([N+](=O)[O-])cc2)cc1 | 11% | · | -1.1% | ·
Cc1ccn2c(NC3CCCCC3)c(C(C)C)nc2c1 | -5% | -3% | 1.4% | -1
COC(=O)c1ccc(C(=O)OCc2nc3cc4ccccc4cc3[nH]2)cc1 | 1% | -34% | -1.4% | 2
CCC(=O)Nc1nnc(S(=O)(=O)N2CCc3ccccc32)s1 | 2% | -1%&-31% | -4.4% | ·
COc1ccccc1CC(=O)NCCc1ccc(S(N)(=O)=O)cc1 | 2% | -6% | 5.2% | 2
CC(=O)Nc1ccccc1C(F)(F)F | 10% | -6% | 3.7% | 0
CN(Cc1cnccn1)C(=O)CC1C(=O)NCCN1Cc1ccc(F)cc1Cl (stereo not given) | -16% | -10% | -0.2% | ·
CCOC(=O)c1c(S(=O)(=O)NCC(C)c2ccccc2)c(C)n(C)c1C (stereo not given) | 0% | -11% | -2.1% | ·
Cc1cc[n+](-c2[nH]c(=O)sc2/C=N/N=C(\[O-])c2ccncc2)cc1C | -5% | 1% | -0.1% | ·
CCNC(=O)NC(=O)C(C)Sc1ccc2c(c1)OCCO2 (stereo not given) | -25% | 0% | -0.5% | 4
COc1ccc(OC)c(S(=O)(=O)Nc2cccc(F)c2)c1 | 1% | -4% | -0.5% | -5
CC(NC(=O)CCc1nnc(C2CCCCC2)o1)c1ccc(F)cc1 (stereo not given) | -3% | 1% | 1.0% | 6
CCC(=O)Nc1ccc(NC(=O)c2cc3ccccc3o2)cc1 | 3% | -30% | 1.4% | -3
CCCS(=O)(=O)N1CCC(C(=O)NCCCN2CCC(Cc3ccccc3)CC2)CC1 | 11% | 0% | 0.0% | 4
O=C(CC(=O)Nc1ccccn1)Nc1ccccn1 | 0% | -7% | 0.6% | 4
CCOC(=O)CC1CCCCN1C(=O)CCCn1nnnc1CN1CCOCC1 (stereo not given) | -16% | 1% | -0.9% | ·
O=C(O)CCN1C(=O)c2ccc(NC(=O)CSCc3ccccc3)cc2C1=O | 1% | -7% | 4.8% | 7
Cc1ccc(C)c(NC(=S)N(CCc2nc3cc(C)c(C)cc3[nH]2)Cc2cccnc2)c1 | -6% | -3% | 2.6% | -4
COc1ccc(C2(c3ccc(OC)cc3)NC(=O)N(CC(=O)NCC(C)c3ccccc3)C2=O)cc1 (stereo not given) | -9% | · | 2.1% | ·
O=C(Nc1ccccc1)Nc1ccc2ocnc2c1 | -2% | -49% | 4.5% | -4
COc1ccc(N2CS(=O)CC2=O)cc1 (stereo not given) | -13% | -1% | 1.7% | -3

Another view of part of the listing above.
Values in the order – Rango dissoc inh | miR-21 FLuc | Rango complex inh | GLA inh pH 4.5
- CCCS(=O)(=O)N1CCC(C(=O)NCCCN2CCC(Cc3ccccc3)CC2)CC1
  11% | 0% | 0.0% | 4
- O=C(CSc1nnc(-c2ccccc2O)o1)NC1CCCCC1
  2% | -10% | -1.4% | ·

Carrying on.
SMILES | Rango dissoc inh | miR-21 FLuc | Rango complex inh | GLA inh pH 4.5
Cc1cc(NC(=O)CSc2ccccc2)no1 | -2% | -12% | -0.9% | 7
CCc1ccc2nc(N3CCN(C(=O)C(C)(C)C)CC3)sc2c1 | 1% | -27% | 1.3% | ·
CCOC(=O)COc1coc(CN2CCN(c3ccc(F)cc3)CC2)cc1=O | -9% | 0% | -0.3% | ·
O=C(CC1Sc2ccccc2NC1=O)NCc1ccc(Cl)cc1 (stereo not given) | 14% | -2% | 1.6% | 3
CCOc1cc(/C=C2\SC(=N)N(c3nccs3)C2=O)ccc1OCCN1CCOCC1 | -25% | 17% | ? | -19
CN1CCN(C(=S)NC(=O)c2ccco2)CC1 | -12% | 0% | 0.0% | 4
Cc1c(Cl)cccc1NC(=O)Cn1nc(C)n2cccc2c1=O | 0% | -1% | 7.3% | ·
COCCNC(=S)Nc1ccccn1 | -14% | -1% | 1.2% | 7
COc1ccc(NC(=O)c2ccc(S(=O)(=O)NCc3cccnc3)cc2)cc1 | -2% | -3% | 0.1% | ·
COc1ccc(C(=O)Nc2cnccn2)cc1[N+](=O)[O-] | 0% | -3% | 5.1% | ·
CS(=O)(=O)N1CCN(c2nnc(-c3ccccc3)c3ccccc23)CC1 | 21% | -6% | -3.8% | -14
Cc1cc(NS(=O)(=O)c2ccc(NC(=O)CSc3nc4sc(C(=O)O)c(C)c4c(=O)[nH]3)cc2)no1 | 0% | 2% | 1.1% | -4
CCOC(=O)C1=CN(CC)S(=O)(=O)NC1CC (stereo not given) | 6% | · | -1.2% | ·
CC(C)c1ccc(CNc2nnnn2C)cc1 | 2% | -5% | -1.6% | ·
Cc1cccc(NS(=O)(=O)c2cc(C(=O)OCC(=O)Nc3cc(C)on3)ccc2C)c1 | -8% | 3% | ? | -15
O=C(c1ccc2c(c1)OCO2)N1CCN(S(=O)(=O)N2CCCCC2)CC1 | 0% | -4% | -0.2% | ·
CCC(NS(=O)(=O)c1ccc(OC)cc1)C(=O)NCCc1ccccc1 (stereo not given) | -4% | -1% | -1.9% | ·
NC(=O)C(CCC(=O)c1ccc(Br)cc1)S(=O)(=O)c1ccccc1 (stereo not given) | -1% | 4% | 2.9% | 3
CC(=O)Nc1ccc2nc(CN3CCN(CC(C)C)C(CCO)C3)ccc2c1 (stereo not given) | -18% | -1% | -1.6% | 0
COc1cc(NC(=O)c2cnn3c(C(F)F)cc(C4CC4)nc23)c(OC)cc1Cl | 1% | -2% | -0.1% | -4
CC(C)(C)C1CCC(OC(=O)C[N+]2(C)CCCCC2)CC1 (stereo not given) | 0% | 6% | -0.9% | 4
O=C(N/N=C/c1ccc(Cl)c([N+](=O)[O-])c1)c1ccc2c(c1)OCCO2 | -8% | · | 1.3% | ·
COc1ccccc1OCC(=O)Nc1sc2c(c1C(N)=O)CCC2 | -13% | · | -1.9% | ·
CC(C)CCNC(=O)c1ccc(OC2CCN(S(=O)(=O)N(C)C)CC2)cc1 | 1% | -5% | 0.9% | 5
CCOc1ccc(Br)cc1S(=O)(=O)Nc1ccc(C(=O)OCC(=O)Nc2ccc(C#N)cc2)cc1 | -15% | 4% | -2.0% | 2

No new results follow: an excerpt of the list.
SMILES | Rango dissoc inh | miR-21 FLuc | Rango complex inh | GLA inh pH 4.5
COCCNC(=S)Nc1ccccn1 | -14% | -1% | 1.2% | 7
COc1ccc(NC(=O)c2ccc(S(=O)(=O)NCc3cccnc3)cc2)cc1 | -2% | -3% | 0.1% | ·
COc1ccc(C(=O)Nc2cnccn2)cc1[N+](=O)[O-] | 0% | -3% | 5.1% | ·
CS(=O)(=O)N1CCN(c2nnc(-c3ccccc3)c3ccccc23)CC1 | 21% | -6% | -3.8% | -14
Cc1cc(NS(=O)(=O)c2ccc(NC(=O)CSc3nc4sc(C(=O)O)c(C)c4c(=O)[nH]3)cc2)no1 | 0% | 2% | 1.1% | -4
CCOC(=O)C1=CN(CC)S(=O)(=O)NC1CC (stereo not given) | 6% | · | -1.2% | ·
CC(C)c1ccc(CNc2nnnn2C)cc1 | 2% | -5% | -1.6% | ·
Cc1cccc(NS(=O)(=O)c2cc(C(=O)OCC(=O)Nc3cc(C)on3)ccc2C)c1 | -8% | 3% | ? | -15
O=C(c1ccc2c(c1)OCO2)N1CCN(S(=O)(=O)N2CCCCC2)CC1 | 0% | -4% | -0.2% | ·
CCC(NS(=O)(=O)c1ccc(OC)cc1)C(=O)NCCc1ccccc1 (stereo not given) | -4% | -1% | -1.9% | ·
NC(=O)C(CCC(=O)c1ccc(Br)cc1)S(=O)(=O)c1ccccc1 (stereo not given) | -1% | 4% | 2.9% | 3
CC(=O)Nc1ccc2nc(CN3CCN(CC(C)C)C(CCO)C3)ccc2c1 (stereo not given) | -18% | -1% | -1.6% | 0
COc1cc(NC(=O)c2cnn3c(C(F)F)cc(C4CC4)nc23)c(OC)cc1Cl | 1% | -2% | -0.1% | -4
CC(C)(C)C1CCC(OC(=O)C[N+]2(C)CCCCC2)CC1 (stereo not given) | 0% | 6% | -0.9% | 4
O=C(N/N=C/c1ccc(Cl)c([N+](=O)[O-])c1)c1ccc2c(c1)OCCO2 | -8% | · | 1.3% | ·
COc1ccccc1OCC(=O)Nc1sc2c(c1C(N)=O)CCC2 | -13% | · | -1.9% | ·
CC(C)CCNC(=O)c1ccc(OC2CCN(S(=O)(=O)N(C)C)CC2)cc1 | 1% | -5% | 0.9% | 5
CCOc1ccc(Br)cc1S(=O)(=O)Nc1ccc(C(=O)OCC(=O)Nc2ccc(C#N)cc2)cc1 | -15% | 4% | -2.0% | 2

The list goes on.
SMILES | Rango dissoc inh | miR-21 FLuc | Rango complex inh | GLA inh pH 4.5
Cc1c(C(=O)OCC(=O)N2CC(C)OC(C)C2)oc2ccc(Br)cc12 (stereo not given) | 11% | -3% | -0.7% | -14
O=C(CSc1nc2c(cnn2-c2ccccc2)c(=O)[nH]1)NC1CCS(=O)(=O)C1 (stereo not given) | 15% | 0% | -0.3% | 6
N#CC1=C(N)N(c2ccccc2)C2=C(C(=O)CCC2)C1c1ccsc1 (stereo not given) | ? | -5% | ? | -6
COC(=O)c1nonc1NCn1nnc2ccccc21 | -1% | -1% | -0.7% | 2
Cn1ccsc1=NC(=O)c1cccc(C#N)c1 | 22% | -30% | -0.9% | ·
CC(=O)C1=C(C)OC(N)=C(C#N)C1c1ccncc1 (stereo not given) | -22% | -5% | ? | -4
CN(C(=S)Nc1cccnc1)c1ccc(O)cc1 | -6% | -14% | -2.6% | 1
N#C/C(=C\c1ccc(-c2ccccc2C(=O)O)o1)c1nc2ccccc2[nH]1 | ? | -10%&-9% | ? | ·
O=c1c([N+](=O)[O-])c(N2CCOCC2)c2ccccc2n1Cc1ccccc1 | -3% | -8% | 2.1% | -9
O=C(O)CC1SC(=Nc2cccc(C(F)(F)F)c2)NC1=O (stereo not given) | 31% | 1% | 1.3% | -11
O=C(N/N=C/c1cccc2ccccc12)c1cc(C2CC2)[nH]n1 | -8% | -37% | -3.0% | ·
CCCOc1ccc(-c2c(C(=O)N/N=C/c3ccccc3OCC)nnn2-c2nonc2N)cc1 | -18% | 0% | -0.5% | ·
CCCCCC1CC(CC(=O)O)C(=O)O1 (stereo not given) | 0% | 0% | -0.5% | 3
Cc1nc(-c2ccc(O)c(O)c2)cs1 | 2% | -26% | 2.9% | -2
CN(C)CCOC(=O)CC12CC3CC(C1)CC(CC(=O)OCCN(C)C)(C3)C2 | 26% | 0% | -1.2% | 4
O=C(O)c1ccc(Nc2nc(-c3cccnc3)cs2)cc1O | 1% | -8% | 4.9% | ·
COC(=O)c1cc(C(=O)OCC(=O)NC2CCS(=O)(=O)C2)cc([N+](=O)[O-])c1 (stereo not given) | 1% | 1% | 0.3% | -18
Cc1cc(C)cc(N2C(=O)CC(n3ccnc3)C2=O)c1 (stereo not given) | -3% | -4% | -0.2% | 7
COc1ccc(C(=O)O)cc1S(=O)(=O)Nc1ccc(Oc2ccccc2)cc1 | 10% | · | 0.2% | ·
O=C(CCn1c(=O)oc2ccccc21)N1CCc2ccccc21 | 2% | 0% | -0.5% | 3
Cc1ccc(C2NC(=S)NC3=C2C(=O)CC(C)(C)C3)cc1 (stereo not given) | -16% | -4% | -3.6% | -13
Cc1ccc(CC(=O)Nc2ccncc2)cc1 | 9% | 18% | 0.6% | 4
C=CCn1c(SCc2cc([N+](=O)[O-])cc3c2OCOC3)nc2cc(C(=O)O)ccc2c1=O | 6% | -1% | 1.8% | -24
